Compound activity: PubChem, several laboratories
UCH37 inh: inhibitors of human UCH37 deubiquitinase, primary screen, biochemical, Ub-AMC cleavage, fluorescence; inhibition, % (no concentration beside the values); Ubiquitin carboxyl-terminal hydrolase isozyme L5 (Homo sapiens), Q9Y5K5; AID 588478, 2011; hit rate 0.33% among 330,000; purified proteasome/UCH37;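 active = mean of two replicates above 20%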;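 note: 0% = compound-free wells with enzyme and 100% = wells lacking proteasome; stock transfer was 100 nL into about 20 µL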
Target sequence (Q9Y5K5 whole entry, looked up): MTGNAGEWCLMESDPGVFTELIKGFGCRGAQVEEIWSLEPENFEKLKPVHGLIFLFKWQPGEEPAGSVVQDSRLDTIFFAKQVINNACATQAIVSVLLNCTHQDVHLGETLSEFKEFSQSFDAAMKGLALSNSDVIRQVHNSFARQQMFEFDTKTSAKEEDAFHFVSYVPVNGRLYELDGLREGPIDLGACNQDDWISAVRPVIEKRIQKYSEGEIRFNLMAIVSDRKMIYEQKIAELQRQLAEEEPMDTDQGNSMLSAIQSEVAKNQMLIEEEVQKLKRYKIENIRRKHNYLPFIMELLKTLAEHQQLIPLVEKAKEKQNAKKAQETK
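Signal – fluorescence, ex 355 nm, em 460 nm · System – Proteasome-bound UCH37 · Input – 0.15 nM proteasome as dispensed · Timing – 30 min preincubation with enzyme, 25 min cleavage at room temperature · Read-out basis – percent inhibition of cleavage signal versus uninhibited and no-proteasome wells · Medium – Tris-HCl pH 7.4 with ATP-MgCl2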
HNF4A DNA FP: change in binding of human HNF4A to DNA, primary screen, biochemical, fluorescence polarization, FITC-DNA; Hepatocyte nuclear factor 4-alpha (Homo sapiens), P41235; 1 h; activity change, % at 10 µM; hit rate 0.3% among 360,000; AID 1224865, 2016; in the data active = activity change above about 30%, passing the limit was not always enough;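 note: controls were the assay level and a saturating level of protein; the project sought stronger binding though the title names inhibitors; some compounds called inactive have numbers as strong as hits; positive values seem to mean higher polarization but the record does not say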
RanGTP-Imp inh: inhibitors of RanGTP-importin-beta interaction, primary screen, biochemical, FRET, CFP-Ran, YFP-importin-beta, homogeneous. AID 2216, 2009. Ran GTPase (GTP-bound) - importin-beta complex. cell-free CFP-Ran/YFP-importin-beta FRET ratio. inhibition, % (concentration not given with the values). hit rate 1.1% among 300,000;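 active = most replicates above 15%; inconclusive = exactly half above 15%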;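 note: 0% = DMSO wells and 100% = Ran loaded with GDP instead of GTP; wells of about 40 µL received 100 nL stock; the first replicate is given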
E coli growth: E. coli growth inhibition, primary screen, OD600; Escherichia coli growth, 23 h; active compounds read low; OD600 absorbance (concentration not given with the values); AID 1053175, 2014; hit rate 0.21% among 330,000;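 active = OD600 absorbance below the run mean of sample wells minus 3.6 SD, in any replicate, cut at about 0.56 in these data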;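 note: stock transfer was 300 nL into about 60 µL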
Vif A3G: inhibitors of Vif binding to APOBEC3G peptide, primary screen, biochemical, TR-FRET, GST-Vif 1-94, biotin-A3G peptide, dose response retest (AID 1117319). Virion infectivity factor (Human immunodeficiency virus type 1 group M subtype B (isolate …. TR-FRET GST-Vif / biotin-A3G peptide binding; higher % means a stronger effect; test concentration not given here; strong numbers were not always called active. one-dose inhibition, %; IC50 in µM for titrated hits. hit rate 0.57% among 260,000;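 active = above the screen mean plus three standard deviations and confirmed in dose response; inconclusive = results disagree or hit not tested in dose response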;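 note: Vif residues 1-94 fused to GST binding biotinylated APOBEC3G peptide 110-148; 0% = full assay without inhibitor and 100% = GST in place of GST-Vif; retest series ran down from 100 µM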
FGF22 binding: binders of human FGF22 protein, primary screen, FGF22 synaptogenesis inhibitor project, biophysical, thermal shift, single point; calls only at 9.99 µM; Fibroblast growth factor 22 (Homo sapiens), Q9HCT0; recombinant FGF22 thermal shift, SYPRO orange fluorescence; percent of sucrose octasulfate shift, DMSO zero; hit rate 1.5% among 340,000;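 active = melting point raised past a set limit in the mean and every replicate; inconclusive = no clear call; three in four hits are not shown here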
Target sequence (Q9HCT0 whole entry, looked up): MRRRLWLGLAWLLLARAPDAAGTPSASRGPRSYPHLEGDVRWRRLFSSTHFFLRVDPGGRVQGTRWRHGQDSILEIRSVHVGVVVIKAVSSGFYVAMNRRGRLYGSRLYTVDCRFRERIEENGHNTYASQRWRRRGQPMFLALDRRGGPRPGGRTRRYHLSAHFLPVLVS
MLL AF4-AF9 inh: inhibitors of AF4 peptide binding to AF9, primary screen, biochemical, AlphaScreen, biotin-AF4 peptide, FLAG-AF9, single point | Protein AF-9 (Homo sapiens), P42568 | inhibition, % at 10 µM | hit rate 0.47% among 350,000 | AID 651704, 2012;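 active = every replicate reaching a set inhibition limit, whatever the replicate mean, cut at about 25% in these data; inconclusive = mean inhibition reaches that limit but some replicates miss it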;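 note: 0% = plate neutral control median and 100% = total signal loss; the record names both 10 and 1 µM as test concentration; the first replicate is given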
Target sequence (P42568 whole entry, looked up): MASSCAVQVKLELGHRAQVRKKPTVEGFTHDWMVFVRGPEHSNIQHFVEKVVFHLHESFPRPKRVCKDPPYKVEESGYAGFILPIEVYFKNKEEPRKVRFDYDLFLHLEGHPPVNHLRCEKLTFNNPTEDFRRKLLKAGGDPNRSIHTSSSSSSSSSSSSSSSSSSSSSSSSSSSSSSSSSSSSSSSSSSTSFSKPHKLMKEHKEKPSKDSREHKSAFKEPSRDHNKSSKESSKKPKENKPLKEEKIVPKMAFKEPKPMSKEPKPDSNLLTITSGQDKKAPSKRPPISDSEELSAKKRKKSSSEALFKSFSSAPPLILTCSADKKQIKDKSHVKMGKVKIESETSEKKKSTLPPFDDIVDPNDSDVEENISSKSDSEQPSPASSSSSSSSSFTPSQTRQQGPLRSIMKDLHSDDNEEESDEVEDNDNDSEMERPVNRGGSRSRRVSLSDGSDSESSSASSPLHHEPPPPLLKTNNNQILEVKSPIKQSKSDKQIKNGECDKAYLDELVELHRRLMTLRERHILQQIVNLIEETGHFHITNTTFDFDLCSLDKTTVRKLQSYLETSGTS
* = called active by the depositor. This is a subset (hit frequency here may not be typical).

Cc1ccc(CCNC(=O)CN2C(=O)COc3ccccc32)cc1 was read as UCH37 inh 1.3, HNF4A DNA FP -1.5, RanGTP-Imp inh 4.2, E coli growth 0.67 and Vif A3G -3%.
Cc1ccccc1N(CC(=O)N/N=C/c1ccc(Cl)cc1)C(=O)c1ccccc1 was read as HNF4A DNA FP -1.8, RanGTP-Imp inh -2.0 and Vif A3G -1%.
Screening CC1CCN(S(=O)(=O)c2ccc(C(=O)N(C)C3CCS(=O)(=O)C3)cc2)CC1 (stereo unspecified) returned UCH37 inh 2.0, HNF4A DNA FP 0.2, RanGTP-Imp inh 2.8, E coli growth 0.73, Vif A3G 6%, FGF22 binding inactive and MLL AF4-AF9 inh -0.3.
For O=C(c1ccccc1)c1ccc(OCC(O)CN2CCOCC2)cc1 (stereo unspecified) the results were UCH37 inh 1.4, HNF4A DNA FP 4.1, RanGTP-Imp inh -1.6 and E coli growth 0.74.
For Cc1ccc(NC2=C(Cl)C(=O)OC2OC(=O)c2ccccc2)c(C)c1 (stereo unspecified) the results were HNF4A DNA FP 2.0, RanGTP-Imp inh 4.9, Vif A3G -4% and MLL AF4-AF9 inh -0.2.
O=C(N/N=C/c1ccco1)C12CC3CC(CC(C3)C1)C2 was read as HNF4A DNA FP -1.5, RanGTP-Imp inh 2.3, Vif A3G 4%, FGF22 binding inactive and MLL AF4-AF9 inh -15.
CCN(CC)S(=O)(=O)c1ccc2oc(C(=O)Nc3ccc(OC)cc3OC)c(C)c2c1 was read as UCH37 inh -42, HNF4A DNA FP 2.4, RanGTP-Imp inh 2.8, E coli growth 0.69 and Vif A3G 12%.
`NCCSC1CC(=O)N(Cc2ccc(F)cc2)C1=O` (stereo unspecified) gave UCH37 inh 3.2, HNF4A DNA FP 2.9, RanGTP-Imp inh -4.2, E coli growth 0.67, Vif A3G 5%, FGF22 binding inactive and MLL AF4-AF9 inh 3.6.
For Cc1cc(=O)oc(C)c1C(=O)NCCN1CCOCC1 the results were UCH37 inh 3.8, HNF4A DNA FP 5.2, RanGTP-Imp inh 0.2, E coli growth 0.68 and Vif A3G -1%.
`O=C(NCc1ccco1)c1cccc2c1C(=O)N(C1CCCCC1)C2` gave UCH37 inh 2.5, HNF4A DNA FP -1.2, RanGTP-Imp inh 2.5, E coli growth 0.7 and Vif A3G inconclusive.
`O=C(/C=C\Nc1ccccn1)c1ccccc1` gave UCH37 inh -0.3, HNF4A DNA FP 1.9, RanGTP-Imp inh 11, E coli growth 0.69 and Vif A3G 2%.
NC(=O)CC(NC(=O)c1cccc(Br)c1)c1ccc(NC2CCCCCCC2)c([N+](=O)[O-])c1 (stereo unspecified) was read as UCH37 inh 0.2, HNF4A DNA FP 0.6, RanGTP-Imp inh -2.4, E coli growth 0.73, FGF22 binding inactive and MLL AF4-AF9 inh -12.
Screening COc1ccc(C(=O)NC2CCCCCC2)cc1S(=O)(=O)N1CCOCC1 returned UCH37 inh 5.3, HNF4A DNA FP -0.7, RanGTP-Imp inh -12, E coli growth 0.71, Vif A3G 2%, FGF22 binding inactive and MLL AF4-AF9 inh -2.6.
Screening COc1ccc(N(C(=O)c2ccco2)C(C(=O)NC2CCCCC2)c2ccccc2)cc1 (stereo unspecified) returned UCH37 inh 5.7, HNF4A DNA FP -0.6, RanGTP-Imp inh -2.8, E coli growth 0.81 and Vif A3G 0%.
For CC1(c2ccccc2)NC(=O)N(CC(=O)Nc2ccccc2C(=O)N2CCCCC2)C1=O (stereo unspecified) the results were UCH37 inh 1.7, HNF4A DNA FP 1.6, E coli growth 0.67, FGF22 binding inactive and MLL AF4-AF9 inh -0.7.
Screening COc1ccccc1N1CCN(C(=O)CN(c2cc(C)cc(C)c2)S(C)(=O)=O)CC1 returned UCH37 inh 3.8, HNF4A DNA FP 0.0, RanGTP-Imp inh -1.2, E coli growth 0.69, Vif A3G -3%, FGF22 binding inactive and MLL AF4-AF9 inh -37.
`CCCN(C(=O)c1cc(S(=O)(=O)N2CCN(CC)CC2)ccc1Cl)C1CCS(=O)(=O)C1` (stereo unspecified) gave UCH37 inh 3.3, HNF4A DNA FP -0.4, E coli growth 0.65, FGF22 binding inactive and MLL AF4-AF9 inh -0.6.
Cc1cccc(NC(=O)C23CCC(C)(C2Br)C3(C)C)c1 (stereo unspecified) was read as UCH37 inh -0.8, HNF4A DNA FP 3.4, RanGTP-Imp inh 2.9, E coli growth 0.71 and Vif A3G -1%.
`CC(C)C(=O)Nc1ccc(C=C2C=Cc3ccccc32)cc1` gave HNF4A DNA FP 0.3, FGF22 binding inactive and MLL AF4-AF9 inh 2.7.
Screening CCOc1nc(SCCOc2ccccc2)nc(N(C)C)n1 returned UCH37 inh 0.2, HNF4A DNA FP 3.9, RanGTP-Imp inh -2.6, E coli growth 0.7 and Vif A3G 4%.
CCCCc1ccc(NC(=O)CN2C(=O)NC(Cc3ccccc3)C2=O)cc1 (stereo unspecified) was read as UCH37 inh -1.1, HNF4A DNA FP 1.9, E coli growth 0.68, Vif A3G 9%, FGF22 binding inactive and MLL AF4-AF9 inh 1.1.
Screening CC(C)CC(NC(=O)C(NC(=O)C1CCC(=O)N1C(=O)OCc1ccccc1)C(C)C)C(=O)N1CCCC1C(N)=O (stereo unspecified) returned UCH37 inh 3.6, HNF4A DNA FP 1.3, RanGTP-Imp inh 3.6, E coli growth 0.69, FGF22 binding inactive and MLL AF4-AF9 inh -2.1.
For COc1ccc(/C=N/NC(=O)c2ccn[nH]2)cc1COc1ccc(F)cc1 the results were HNF4A DNA FP -1.2, RanGTP-Imp inh 1.9 and Vif A3G 2%.
`O=C(CC1Sc2ccccc2NC1=O)OC(C(=O)NCCc1ccccc1)c1cccnc1` (stereo unspecified) gave UCH37 inh -5.1, HNF4A DNA FP -3.7, RanGTP-Imp inh 2.6, E coli growth 0.74 and Vif A3G 2%.
For Clc1ccc(SCCn2ccnc2)cc1 the results were UCH37 inh -0.3, HNF4A DNA FP -1.6, RanGTP-Imp inh 3.5, E coli growth 0.65 and Vif A3G 21%.
`O=C(CSc1nnc(CNc2ccc(Cl)cc2)o1)Nc1nc2c(s1)CCCC2` gave UCH37 inh 6.5, HNF4A DNA FP 0.8, RanGTP-Imp inh 10, E coli growth 0.7 and Vif A3G 12%.
For Cc1ccccc1Nc1nc(-c2cccnc2)nc2ccccc12 the results were UCH37 inh -1.6, HNF4A DNA FP 6.6, RanGTP-Imp inh 0.7, E coli growth 0.75, Vif A3G -12%, FGF22 binding inactive and MLL AF4-AF9 inh -3.7.
For COc1cccc2cc(C(C)N(CCCN3CCOCC3)C(=S)Nc3ccc(C)cc3)oc12 (stereo unspecified) the results were UCH37 inh 1.4, HNF4A DNA FP -0.1, RanGTP-Imp inh 4.6, E coli growth 0.67 and FGF22 binding inactive.
Cc1ccc2nc(-c3ccc(NC(=O)C(C)Sc4nncs4)cc3)sc2c1 (stereo unspecified) was read as UCH37 inh -40, HNF4A DNA FP 5.7, RanGTP-Imp inh -2.5, E coli growth 0.69, FGF22 binding inactive and MLL AF4-AF9 inh 2.2.
For c1ccc(-c2cc(NCCN3CCCCC3)c3ccccc3n2)cc1 the results were UCH37 inh -1.7, HNF4A DNA FP -4.8, RanGTP-Imp inh -3.4, E coli growth 0.66, Vif A3G 3%, FGF22 binding inactive and MLL AF4-AF9 inh 7.5.
`CCN(CC)CCNC(=O)Cn1nc(-c2ccc(C)cc2)ccc1=O` gave UCH37 inh -8.0, HNF4A DNA FP 1.5, RanGTP-Imp inh -2.3, E coli growth 0.67 and Vif A3G -6%.
For O=C(O)c1ccc(CS(=O)(=O)c2c(Cl)cccc2Cl)o1 the results were UCH37 inh 2.3, HNF4A DNA FP 2.1, RanGTP-Imp inh 1.9, E coli growth 0.67, Vif A3G 0%, FGF22 binding inactive and MLL AF4-AF9 inh -0.4.
O=C(CS(=O)(=O)c1ccc(F)cc1)NCCS(=O)(=O)c1ccccc1 was read as UCH37 inh 5.0, HNF4A DNA FP 0.2, RanGTP-Imp inh 5.7, E coli growth 0.63, Vif A3G -4%, FGF22 binding inactive and MLL AF4-AF9 inh -3.2.
COc1ccc2c(=O)c3c(=O)n(-c4ccccc4)c(-c4ccc(C)cc4)nc3oc2c1 was read as UCH37 inh 4.3, HNF4A DNA FP 2.3, RanGTP-Imp inh -1.9, E coli growth 0.76, Vif A3G -40% and FGF22 binding inactive.
`COCCOC(=O)c1c(C)n(C)c2ccc(OC(=O)c3cccs3)cc12` gave UCH37 inh 1.1, HNF4A DNA FP 2.7, E coli growth 0.73 and Vif A3G inconclusive.
`COc1ccccc1CNC(=O)c1ccoc1C` gave UCH37 inh -0.1, HNF4A DNA FP 1.5, RanGTP-Imp inh 1.3, E coli growth 0.68 and Vif A3G 15%.
For CC(=O)c1ccc(Oc2cc(-c3ccccc3)nc(-c3ccccc3)n2)cc1 the results were UCH37 inh -3.2, HNF4A DNA FP -0.6, RanGTP-Imp inh 3.0, E coli growth 0.74, Vif A3G -10%, FGF22 binding inactive and MLL AF4-AF9 inh -2.4.
Screening O=C(Nc1ccccc1F)c1cc(Cl)sc1Cl returned UCH37 inh 2.5, HNF4A DNA FP 2.0, RanGTP-Imp inh 2.5, E coli growth 0.64, Vif A3G 1%, FGF22 binding inactive and MLL AF4-AF9 inh -0.5.
Screening O=C(NC(=S)N1CCN(c2ccc(O)cc2)CC1)c1ccco1 returned UCH37 inh 4.5, HNF4A DNA FP 1.5, E coli growth 0.72, Vif A3G 2%, FGF22 binding inactive and MLL AF4-AF9 inh 8.5.
Nc1nc(-c2ccccc2)cc(C(F)(F)F)n1 was read as UCH37 inh -10, HNF4A DNA FP -5.3, RanGTP-Imp inh -2.9, E coli growth 0.65 and Vif A3G 33%.
`OCCC1CN(Cc2cccn2-c2ncccn2)CCN1CCc1ccccc1` (stereo unspecified) gave UCH37 inh 2.3, HNF4A DNA FP 1.2, RanGTP-Imp inh 0.6, E coli growth 0.69, Vif A3G 4%, FGF22 binding inactive and MLL AF4-AF9 inh 3.9.
Cc1cccc(C)c1OC(=O)CCN1C(=O)C2C3C=CC(C4CC34)C2C1=O (stereo unspecified) was read as UCH37 inh 0.8, HNF4A DNA FP 2.9, RanGTP-Imp inh 2.1, E coli growth 0.66, Vif A3G -10%, FGF22 binding inactive and MLL AF4-AF9 inh -1.1.
For CC1C(=O)N(Cc2ccc([N+](=O)[O-])cc2)c2ccccc2N1C(=O)c1c(F)cccc1F (stereo unspecified) the results were UCH37 inh 3.9, HNF4A DNA FP 3.2, RanGTP-Imp inh 3.0, E coli growth 0.62, Vif A3G 1%, FGF22 binding inactive and MLL AF4-AF9 inh inconclusive.
For CC1(C(=O)NCc2cccc(Cl)c2)Cc2c(-c3ccc4c(c3)OCO4)ccnc2O1 (stereo unspecified) the results were HNF4A DNA FP -4.3, FGF22 binding inactive and MLL AF4-AF9 inh 1.1.
`Cc1ccc(O)c(C2=Nc3ccccc3N=C(c3cccs3)C2)c1` gave UCH37 inh 1.6, HNF4A DNA FP 1.9, RanGTP-Imp inh -1.7, E coli growth 0.7 and Vif A3G -8%.
For Cc1sc2ncnc(N/N=C/c3ccc(O)cc3)c2c1C the results were HNF4A DNA FP -0.6, RanGTP-Imp inh 0.7, FGF22 binding inactive and MLL AF4-AF9 inh inconclusive.
